# A1 apoptosis 2: A1 inhibitors via caspase activation, primary screen, cell-based, luminescence, HTS, two replicates; MEF A1-2A-BIM cells, caspase-Glo luminescence, 3 h; percent of clofoctol response, DMSO zero; caspase activation, % (no concentration beside the values); 24,000 tested, under 10 active; in the data active = caspase activation above about 5.9%;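 also: wells of about 30 µL received 50 nL stock; the first replicate is given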
#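 Evaluation: Caspase-3/7 activity from luminescence increase | Assay system: A1-2A-BIM mouse embryonic fibroblasts | Quantity: 2500 MEF cells/well | Medium: RPMI-1640 plus 10% FBS | Detection: Caspase-Glo 3/7 luminescence, 1 h at room temperature | Dosing: 50 nL compound per well, pinned | Timing: Cells settled overnight, compound exposure 3 h at 37 °C, 5% CO2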
# * = called active by the depositor. An excerpt, so the mix of outcomes need not match the whole.
SMILES | A1 apoptosis 2
COc1ccc(CN(C)C[C@@H]2OCCCC[C@H](C)Oc3ccc(N(C)C)cc3C(=O)N([C@H](C)CO)C[C@@H]2C)cc1 | 0.0
CC(C)NC(=O)N(C)C[C@@H]1OCCCC[C@H](C)Oc2ccc(NC(=O)Cc3ccccc3)cc2C(=O)N([C@@H](C)CO)C[C@H]1C | 0.7
CNC[C@H]1Oc2ccc(NS(=O)(=O)c3ccc(F)cc3)cc2C(=O)N([C@H](C)CO)C[C@@H]1C | 0.5
C[C@@H]1CN([C@@H](C)CO)C(=O)c2cccc(NS(=O)(=O)c3ccc(Cl)cc3)c2O[C@H]1CN(C)CC1CC1 | -1.3
COc1ccc(NC(=O)N(C)C[C@H]2Oc3ccc(NC(=O)Nc4cccc5ccccc45)cc3C(=O)N([C@@H](C)CO)C[C@H]2C)cc1 | -0.2
C[C@H](CO)N1C[C@H](C)[C@H](CN(C)S(=O)(=O)c2ccccc2)Oc2ccc(NC(=O)C3CCCCC3)cc2C1=O | 0.2
O=C(O)CCCCCCC(=O)N/N=C/c1ccc2ccccc2n1 | 1.4
C[C@H]1CN([C@@H](C)CO)C(=O)c2cc(NC(=O)c3ccncc3)ccc2O[C@@H]1CN(C)S(=O)(=O)c1ccc(Cl)cc1 | -0.6
Cc1noc(C)c1S(=O)(=O)Nc1ccc2c(c1)C(=O)N([C@H](C)CO)C[C@@H](C)[C@H](CN(C)S(=O)(=O)c1cccs1)OCCCC[C@@H](C)O2 | -1.0
C[C@@H]1CN([C@@H](C)CO)C(=O)Cc2cc(NS(C)(=O)=O)ccc2O[C@@H]1CN(C)Cc1ccc(Oc2ccccc2)cc1 | -0.2
COc1ccc(S(=O)(=O)N(C)C[C@@H]2Oc3ccc(NC(=O)CCCCCC(=O)Nc4ccccc4N)cc3C(=O)N([C@H](C)CO)C[C@H]2C)cc1 | 0.1
C[C@@H]1CN([C@H](C)CO)C(=O)c2cc(NC(=O)CCN3CCOCC3)ccc2O[C@@H]1CN(C)C | 0.5
C[C@@H]1CN([C@H](C)CO)C(=O)c2cc(NC(=O)CCC(F)(F)F)ccc2O[C@H]1CN(C)C(=O)Nc1ccc(F)cc1 | 0.8
C[C@@H]1CN([C@@H](C)CO)C(=O)c2cccc(NS(=O)(=O)c3cn(C)cn3)c2O[C@H]1CN(C)CC1CC1 | -0.6
CC(C)NC(=O)N(C)C[C@@H]1Oc2ccc(NC(=O)Cn3cnnn3)cc2CC(=O)N([C@@H](C)CO)C[C@H]1C | 0.2
C[C@H](CO)N1C[C@H](C)[C@H](CN(C)C(=O)Nc2cccc3ccccc23)Oc2ncccc2C1=O | -0.2
C[C@H]1CN([C@@H](C)CO)C(=O)c2cc(NC(=O)Nc3ccc(F)cc3)ccc2O[C@H]1CN(C)C(=O)NC1CCCCC1 | 0.6
O=C1C[C@@](C(=O)NCc2ccccc2)(c2ccc([N+](=O)[O-])cc2)[C@@H](c2ccc(CO)cc2)N1C1CCCCC1 | 0.5
Cc1ccc(S(=O)(=O)Nc2cccc3c2O[C@@H](CN(C)C)[C@H](C)CN([C@H](C)CO)C3=O)cc1 | 0.3
C[C@@H]1CN([C@H](C)CO)C(=O)CCCn2nncc2CO[C@H]1CN(C)Cc1cccc(C(F)(F)F)c1 | 0.2
COc1ccc(NC(=O)Nc2ccc3c(c2)CC(=O)N([C@H](C)CO)C[C@H](C)[C@@H](CN(C)Cc2ccc(C(=O)O)cc2)O3)cc1 | 0.5
C[C@@H]1CN([C@H](C)CO)C(=O)Cc2cc(NC(=O)Nc3ccc(C(F)(F)F)cc3)ccc2O[C@H]1CN(C)S(=O)(=O)c1cn(C)cn1 | -0.6
C[C@H]1CCCCO[C@@H](CN(C)C(=O)Nc2ccccc2)[C@@H](C)CN([C@@H](C)CO)C(=O)c2cc(NC(=O)Nc3ccccc3)ccc2O1 | 0.3
C[C@@H]1CN([C@H](C)CO)C(=O)CCCn2cc(nn2)CO[C@H]1CN(C)Cc1ccc(C(F)(F)F)cc1 | 0.9
C#CCOc1ccc(/C=N/NC(=O)c2ccccc2O)cc1 | -9.7
C[C@@H]1CN([C@H](C)CO)C(=O)CCCn2nncc2CO[C@H]1CN(C)C(=O)Nc1cccc(Oc2ccccn2)c1 | 2.1
C[C@@H]1CCCCO[C@H](CN(C)S(=O)(=O)c2cn(C)cn2)[C@@H](C)CN([C@@H](C)CO)C(=O)c2cc(NC(=O)Nc3cccc4ccccc34)ccc2O1 | -0.1
CC(C)NC(=O)Nc1ccc2c(c1)CC(=O)N([C@H](C)CO)C[C@H](C)[C@H](CN(C)C(=O)Nc1ccc3c(c1)OCO3)O2 | -0.7
C[C@@H]1CN([C@@H](C)CO)C(=O)Cc2cc(NS(=O)(=O)c3ccc(Cl)cc3)ccc2O[C@@H]1CN(C)Cc1ccc2c(c1)OCO2 | -0.8
C[C@H](CO)N1C[C@H](C)[C@@H](CN(C)C(=O)Nc2ccc(C(F)(F)F)cc2)Oc2ccc(NS(=O)(=O)c3ccc(Cl)cc3)cc2CC1=O | 0.2
C[C@H]1CN([C@@H](C)CO)C(=O)c2cccc(NC(=O)C3CCCCC3)c2O[C@H]1CN(C)C(=O)Nc1ccc(F)cc1 | -0.1
C[C@@H]1CN([C@@H](C)CO)C(=O)c2cccc(NC(=O)NC3CCCCC3)c2O[C@H]1CN(C)S(=O)(=O)c1ccc(Cl)cc1 | -1.4
C[C@H](CO)N1C[C@H](C)[C@H](CN(C)Cc2ccccc2)Oc2c(NC(=O)Nc3ccc(F)cc3)cccc2C1=O | -1.1
Cc1cccc(S(=O)(=O)N(C)C[C@@H]2OCc3cn(nn3)CCCC(=O)N([C@H](C)CO)C[C@H]2C)c1 | 1.8
C[C@@H]1CN([C@H](C)CO)C(=O)c2cccc(NS(=O)(=O)c3cccs3)c2O[C@H]1CN(C)Cc1ccc(C(F)(F)F)cc1 | 0.8
Cc1noc(C)c1NC(=O)N(C)C[C@H]1Oc2ccc(NS(=O)(=O)c3ccc(Cl)cc3)cc2CC(=O)N([C@@H](C)CO)C[C@@H]1C | -0.2
COc1ccc(NC(=O)N(C)C[C@H]2OCCCC[C@@H](C)Oc3ccc(NS(=O)(=O)c4ccc(C)cc4)cc3C(=O)N([C@@H](C)CO)C[C@@H]2C)cc1 | -2.0
C[C@@H]1CCCCO[C@H](CN(C)C(=O)Nc2ccccc2)[C@H](C)CN([C@@H](C)CO)C(=O)c2cc(NC(=O)c3ccncc3)ccc2O1 | 0.8
Cc1ccc(S(=O)(=O)N(C)C[C@@H]2Oc3ccc(N(C)C)cc3CC(=O)N([C@@H](C)CO)C[C@H]2C)cc1 | 1.8
C[C@@H]1CN([C@H](C)CO)C(=O)CCCn2cc(nn2)CO[C@@H]1CN(C)C(=O)Cc1ccccc1 | 1.2

# Sorted by heavy-atom count (low to high): part of the list above
SMILES | A1 apoptosis 2
C[C@H]1CN([C@@H](C)CO)C(=O)c2cccc(NC(=O)C3CCCCC3)c2O[C@H]1CN(C)C(=O)Nc1ccc(F)cc1 | -0.1
C[C@@H]1CN([C@H](C)CO)C(=O)c2cccc(NS(=O)(=O)c3cccs3)c2O[C@H]1CN(C)Cc1ccc(C(F)(F)F)cc1 | 0.8
C[C@@H]1CN([C@@H](C)CO)C(=O)Cc2cc(NS(=O)(=O)c3ccc(Cl)cc3)ccc2O[C@@H]1CN(C)Cc1ccc2c(c1)OCO2 | -0.8
COc1ccc(NC(=O)Nc2ccc3c(c2)CC(=O)N([C@H](C)CO)C[C@H](C)[C@@H](CN(C)Cc2ccc(C(=O)O)cc2)O3)cc1 | 0.5
COc1ccc(NC(=O)N(C)C[C@H]2OCCCC[C@@H](C)Oc3ccc(NS(=O)(=O)c4ccc(C)cc4)cc3C(=O)N([C@@H](C)CO)C[C@@H]2C)cc1 | -2.0

# Grouped by structure, those above containing two or more sulfur atoms.
SMILES | A1 apoptosis 2
Cc1noc(C)c1S(=O)(=O)Nc1ccc2c(c1)C(=O)N([C@H](C)CO)C[C@@H](C)[C@H](CN(C)S(=O)(=O)c1cccs1)OCCCC[C@@H](C)O2 | -1.0
C[C@@H]1CN([C@H](C)CO)C(=O)c2cccc(NS(=O)(=O)c3cccs3)c2O[C@H]1CN(C)Cc1ccc(C(F)(F)F)cc1 | 0.8

# Carrying on:
SMILES | A1 apoptosis 2
C[C@H]1CCCCO[C@H](CN(C)S(C)(=O)=O)[C@@H](C)CN([C@@H](C)CO)C(=O)c2cc(NS(=O)(=O)c3ccccc3)ccc2O1 | 1.4
COC(=O)CCCCCCC(=O)N/N=C/c1ccc(O)c(O)c1O | -2.0
O=C(N/N=C/c1cccc(Br)c1)c1ccccc1O | -2.8
C[C@@H]1CCCCO[C@H](CN(C)C)[C@H](C)CN([C@@H](C)CO)C(=O)c2cc(NC(=O)C3CCCCC3)ccc2O1 | -1.0
COC(=O)CCCCCCC(=O)N/N=C/c1cc(I)cc(I)c1O | 0.9
Cc1noc(C)c1NC(=O)Nc1ccc2c(c1)C(=O)N([C@H](C)CO)C[C@H](C)[C@@H](CN(C)C)O2 | 0.0
C[C@@H]1CN([C@@H](C)CO)C(=O)c2cccc(NC(=O)C3CCCCC3)c2O[C@H]1CN(C)C(=O)Nc1ccc(F)cc1 | 1.4
C[C@@H]1CN([C@H](C)CO)C(=O)c2cc(NS(=O)(=O)c3cccs3)ccc2O[C@@H]1CN(C)C(=O)Nc1ccc2c(c1)OCO2 | -0.9
C[C@H]1CN([C@@H](C)CO)C(=O)c2cc(NC(=O)NC3CCCCC3)ccc2O[C@H]1CN(C)C(=O)Nc1ccccc1 | -0.6
Cc1noc(C)c1NC(=O)Nc1ccc2c(c1)C(=O)N([C@H](C)CO)C[C@H](C)[C@H](CN(C)C(=O)NC(C)C)OCCCC[C@@H](C)O2 | 1.9
C[C@H]1CN([C@@H](C)CO)C(=O)c2cc(NC(=O)Nc3ccccc3)ccc2O[C@H]1CN(C)Cc1ccc(Cl)c(Cl)c1 | -0.7
C[C@@H]1CN([C@H](C)CO)C(=O)c2cc(NC(=O)CCN3CCOCC3)ccc2O[C@@H]1CN(C)C(=O)Nc1ccc(C(F)(F)F)cc1 | -0.8
C[C@@H]1CN([C@H](C)CO)C(=O)c2cc(NC(=O)NC3CCCCC3)ccc2O[C@@H]1CN(C)Cc1ccncc1 | -0.8
C[C@H]1CN([C@@H](C)CO)C(=O)c2cc(N(C)C)ccc2O[C@H]1CN(C)C(=O)Nc1ccc(F)cc1 | -0.2
C[C@@H]1CCCCO[C@@H](CN(C)C(=O)NC2CCCCC2)[C@H](C)CN([C@H](C)CO)C(=O)c2cc(NS(=O)(=O)c3cccs3)ccc2O1 | 2.5
COc1ccc(NC(=O)Nc2cccc3c2O[C@H](CN(C)C(=O)Nc2ccccc2)[C@@H](C)CN([C@@H](C)CO)C3=O)cc1 | 0.0
C[C@@H]1CN([C@@H](C)CO)C(=O)c2cccc(NS(=O)(=O)c3cn(C)cn3)c2O[C@H]1CN(C)C(=O)Nc1cccc2ccccc12 | 1.0
COc1ccc(S(=O)(=O)N(C)C[C@@H]2OCCCC[C@H](C)Oc3ccc(N(C)C)cc3C(=O)N([C@@H](C)CO)C[C@@H]2C)cc1 | -0.2
C[C@@H]1CN([C@H](C)CO)C(=O)Cc2cc(NC(=O)Nc3ccccc3)ccc2O[C@@H]1CN(C)C(=O)Nc1ccc(F)cc1 | -1.6
C[C@@H]1CN([C@@H](C)CO)C(=O)Cc2cc(NS(=O)(=O)c3cccs3)ccc2O[C@H]1CN(C)CC1CC1 | -0.4
Cc1noc(C)c1NC(=O)N(C)C[C@H]1OCCCC[C@@H](C)Oc2ccc(NC(=O)CCC(F)(F)F)cc2C(=O)N([C@H](C)CO)C[C@@H]1C | -0.2
C[C@@H]1CCCCO[C@H](CN(C)CC2CC2)[C@H](C)CN([C@@H](C)CO)C(=O)c2cc(NC(=O)Nc3ccc(F)cc3)ccc2O1 | -0.6
COc1ccc(S(=O)(=O)Nc2cccc3c2O[C@H](CN(C)S(=O)(=O)c2cn(C)cn2)[C@H](C)CN([C@@H](C)CO)C3=O)cc1 | 0.6
C[C@@H]1CCCCO[C@H](CN(C)C(=O)Nc2ccc(F)cc2)[C@H](C)CN([C@@H](C)CO)C(=O)c2cc(NC(=O)Nc3ccc(C(F)(F)F)cc3)ccc2O1 | -0.3
C[C@@H]1CN([C@@H](C)CO)C(=O)c2cc(NC(=O)C3CC3)ccc2O[C@H]1CN(C)C(=O)Nc1ccc(F)cc1 | -0.3
CC(C)NC(=O)Nc1ccc2c(c1)CC(=O)N([C@H](C)CO)C[C@@H](C)[C@@H](CN(C)Cc1ccc(-c3ccccc3)cc1)O2 | 0.6
C[C@@H]1CN([C@@H](C)CO)C(=O)c2cc(NS(=O)(=O)c3ccc(F)cc3)ccc2O[C@@H]1CN(C)S(=O)(=O)c1cn(C)cn1 | 0.2
Cc1ccc(S(=O)(=O)Nc2ccc3c(c2)C(=O)N([C@@H](C)CO)C[C@@H](C)[C@H](CN(C)C(=O)Nc2ccc4c(c2)OCO4)O3)cc1 | -1.2
C[C@H](CO)N1C[C@H](C)[C@H](CN(C)C(=O)Nc2ccccc2)Oc2ccc(NC(=O)Cc3cn(C)c4ccccc34)cc2C1=O | 1.0
Cc1ccc(S(=O)(=O)Nc2ccc3c(c2)CC(=O)N([C@H](C)CO)C[C@@H](C)[C@H](CN(C)C(=O)Nc2c(C)noc2C)O3)cc1 | -1.5
CC(=O)n1cc([C@H]2C=C(C(=O)N3CCOCC3)O[C@@H](OCc3ccc(CO)cc3)C2)c2ccccc21 | 1.1
C[C@@H]1CN([C@@H](C)CO)C(=O)c2cc(NC(=O)c3ccncc3)ccc2O[C@H]1CN(C)CC1CCCCC1 | 0.3
O=C(C1=C[C@H](c2ccc(C(F)(F)F)cc2)C[C@H](OCCCCO)O1)N1CCOCC1 | -0.1
Cc1noc(C)c1S(=O)(=O)Nc1ccc2c(c1)C(=O)N([C@H](C)CO)C[C@@H](C)[C@H](CN(C)Cc1ccc(Cl)c(Cl)c1)O2 | -1.0

# Bioassay records (PubChem BioAssay)
